High-throughput results as filed in PubChem.
RN4220 kill: growth inhibition of S. aureus RN4220, primary screen, OD600; 16 h; inhibition, % (test concentration not listed); 0.33% of 330,000 active;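 active = z-score of -3 or lower and OD600 up to 0.18 on both plates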;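 also: plate controls were untreated cells for no effect and reference antibiotic for full effect; stock transfer was 100 nL into about 80 µL; one replicate is shown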
BJeLR viability: MLPCN primary cell-based screen for lethality selective to Ras in HRASV12 cells; BJeLR (HRASV12) viability, CellTiter-Glo ATP luminescence, 48 h; reference of the scale not given here; inhibition, % (concentration not given with the values); 0.17% of 300,000 active;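 active = replicate mean above 50%; inconclusive = above 50% but judged a plate artefact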;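 also: 50 nL library stock added to about 25 µL; numbers are from one replicate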
PrP 5UTR inh: inhibition of PrP 5' UTR reporter expression; 0.35% of 340,000 active; AID 488862, 2010; cell-based PrP 5' UTR mRNA reporter, plate reader; inhibition, % (test concentration not listed);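 active = every replicate at 50% or more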;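 also: 0 = median of the neutral control wells; tested in H4 reporter cells; numbers are from one replicate; inactives centre near -14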
Mtb hypoxia rep: PubChem AID 1159583 | fluorescence inhibition, % (no concentration beside the values) | M. tuberculosis hypoxia-regulated fluorescent reporter, fluorescence | 0.1% of 300,000 active;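 active = 35 to 45% if threefold the growth effect, above 45% if 1.5-fold the growth effect; inactive = the rest, general growth blockers included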;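 also: wells of about 50 µL received 100 nL stock; 0% = vehicle wells and 100% = reference inhibitor wells; whole bacteria with a GFP reporter of the hypoxia response; strong numbers were not always called active; many hits fall short of the cut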
Sa ugtP lethal: growth inhibition of ugtP-null S. aureus, primary screen, RN4220 ugtP deletion, OD600; 16 h; some inactives read as strong as hits; growth inhibition, % (no concentration beside the values); AID 1259309, 2017; 0.54% of 330,000 active;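 active = z-score under -3 and OD600 up to 0.15 on both plates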;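 also: plate controls were untreated wells for no effect and antibiotic for full effect; wells of about 80 µL received 100 nL stock; the first replicate is given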
Bead autofluor: counter-screen for toxin protease inhibitors: compound fluorescence; compound autofluorescence counterscreen, microsphere flow cytometry; active compounds read high; fluorescence intensity (no concentration beside the values); 3.1% of 360,000 active; AID 624483;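 active = at least 3 SD above the mean of all compounds, about 16000 in these data; inconclusive = too few beads counted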;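 also: 100 nL of 1 mM stock went into each well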
Mtb hypoxia rep growth: recorded beside Mtb hypoxia rep, whose call it bears; growth inhibition, %; measured here: M. tuberculosis growth (absorbance);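 0% = vehicle and 100% = reference antibiotic; read after six days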
Active calls of the source: *; ? = inconclusive; / = no result given.

SMILES	RN4220 kill	BJeLR viability	PrP 5UTR inh	Mtb hypoxia rep	Mtb hypoxia rep growth	Sa ugtP lethal	Bead autofluor
COCCCNC(=O)CSc1c2c(nc3ccc(Cl)cc13)CCCC2	8.3	7	-15	11	10	1	2810
CCCCP(=O)(CCCC)c1ccccc1C(=O)O	-2.9	0	-22	/	/	-2	5072
Cc1noc(C)c1COc1cccc(C(=O)Nc2ccc(Br)cc2F)c1	11	/	-10	7	7	8	4442
CC(C)(C)c1ccc(/C=C/C(=O)NC2=NCCS2)cc1	2.0	3	-72	/	/	4	2718
Cc1ccc(S(=O)(=O)N(C)Cc2ccc(C(=O)NN=C3CC(=O)CC(C)(C)C3)cc2)cc1	1.5	/	/	13	8	2	/
NNC(=O)c1ccc(COc2ccc3c(c2)CCC3)cc1	5.4	-5	-21	10	5	5	1962
CC(=O)[C@H]1[C@H]([C@H](O)[C@H](O)CO)O[C@](O)(C(=O)O)C[C@@H]1O	0.0	/	-9	/	/	6	5624
Cc1nc2n(COCCO)cnn2c(=O)c1Br	1.6	-10	-9	5	-10	-3	2534
CCC(=O)c1cc2c(cc1NC(=O)c1ccc(C)cc1)OCCO2	-3.3	2	-25	3	0	3	20255*
CCc1ccc(N2CC(C(=O)OCC(=O)Nc3ccc(C(C)=O)cc3)CC2=O)cc1 (stereo not drawn)	3.7	/	-32	7	-2	6	7918
COc1ccc(NC(=O)c2nc[nH]c2C(=O)N2CCN(c3ccccc3)CC2)cc1	0.3	-1	-6	-3	12	-15	3737
O=C(c1ccc(Cl)cc1[N+](=O)[O-])N1CCN(c2ccccn2)CC1	5.2	-5	-8	9	12	7	2596
CCOC(=O)CSc1nc(C)cc(Oc2ccc(=O)n(C)n2)n1	5.0	5	-3	2	3	15	4483
CCCC(C)C(=O)NCc1ccccc1OC (stereo not drawn)	4.9	0	-3	4	10	-4	3771
COc1cc2cc(CCO)oc(=O)c2cc1OC	4.2	/	-7	8	8	0	2929
O=C(Nc1ccc(Oc2ccccc2)cc1)C1CCN(c2ncccn2)CC1	6.1	2	-21	-4	6	-4	11068
O=S(=O)(NN=Cc1ccc2c(c1)OCO2)c1ccc(Cl)cc1	1.1	/	/	6	6	-5	/
CCCCc1nnc(NC(=O)CCS(=O)(=O)Cc2ccccc2)s1	-1.1	1	0	-11	-13	1	6327
O=C1N=C(N2CCCC2)S/C1=C\c1cn[nH]c1-c1ccccc1	-0.4	1	/	0	5	1	/
CCSC1=N/C(=C\c2ccc3c(c2)OCO3)C(=O)S1	19	4	-22	/	/	15	3356
CC(=O)NCCc1cc2ccc(C)c(C)c2[nH]c1=O	0.1	16	-2	5	15	7	5282
Cc1ccc(S(=O)(=O)N2CCOCC2)cc1NC(=O)CSc1nc2ccccc2c(=O)n1Cc1ccccc1	2.5	-3	-8	-7	0	4	2105
O=C1C=C(c2ccc(Oc3ccccc3)cc2)CC(c2ccc(F)cc2)C1 (stereo not drawn)	-5.8	/	/	9	7	7	/
COc1ccc(NC(=S)NC(=O)c2ccccc2)cn1	2.7	-5	-43	12	14	18	5340

Compounds above that have an aryl thioether with sulfur outside any ring, in the order listed:
SMILES	RN4220 kill	BJeLR viability	PrP 5UTR inh	Mtb hypoxia rep	Mtb hypoxia rep growth	Sa ugtP lethal	Bead autofluor
COCCCNC(=O)CSc1c2c(nc3ccc(Cl)cc13)CCCC2	8.3	7	-15	11	10	1	2810
CCOC(=O)CSc1nc(C)cc(Oc2ccc(=O)n(C)n2)n1	5.0	5	-3	2	3	15	4483
Cc1ccc(S(=O)(=O)N2CCOCC2)cc1NC(=O)CSc1nc2ccccc2c(=O)n1Cc1ccccc1	2.5	-3	-8	-7	0	4	2105

3 structures out of the list, arranged by number of heavy atoms, largest number first.
SMILES	RN4220 kill	BJeLR viability	PrP 5UTR inh	Mtb hypoxia rep	Mtb hypoxia rep growth	Sa ugtP lethal	Bead autofluor
O=C1C=C(c2ccc(Oc3ccccc3)cc2)CC(c2ccc(F)cc2)C1 (stereo not drawn)	-5.8	/	/	9	7	7	/
COc1ccc(NC(=S)NC(=O)c2ccccc2)cn1	2.7	-5	-43	12	14	18	5340
CC(=O)NCCc1cc2ccc(C)c(C)c2[nH]c1=O	0.1	16	-2	5	15	7	5282

(more compounds)
SMILES	RN4220 kill	BJeLR viability	PrP 5UTR inh	Mtb hypoxia rep	Mtb hypoxia rep growth	Sa ugtP lethal	Bead autofluor
O=S(=O)(Nc1ccccc1Br)c1cccs1	6.7	2	-13	5	2	0	3670
Cc1ccc(CNC(=O)CN(C)S(=O)(=O)c2cnc[nH]2)cc1	8.1	6	-43	6	3	0	10460
COc1ccc(C(C(=O)NC2CCCC2)N(Cc2cccnc2)C(=O)Cc2cccs2)cc1OC (stereo not drawn)	6.4	-7	4	2	3	2	4313
O=C(c1ccc(F)c(S(=O)(=O)N2CCOCC2)c1)N1CCN(c2ccc(F)cc2)CC1	4.0	/	-10	8	4	0	3435
CN1CCN(c2ccccc2NC(=O)c2c(F)cccc2F)CC1	6.2	-1	-10	14	21	3	3905
CC1(C)Cc2c(sc(N=CN3CCCCC3)c2C#N)C(C)(C)N1	0.5	/	/	5	15	0	/
O=C(Nc1ccccc1C(=O)NCCN1CCOCC1)c1cccc([N+](=O)[O-])c1	-2.4	-2	-21	0	6	-2	5954
Cc1ccccc1NC(=O)C1CCCN(C(=O)Nc2ccc(F)cc2)C1 (stereo not drawn)	0.3	-1	-12	1	4	2	5358
COc1ccc(/C=C/C(=O)OCC(=O)NC2CCCC(C)C2C)cc1 (stereo not drawn)	1.9	/	-24	5	-8	3	2800
COc1cc2[nH]c(=S)n(CCN3CCOCC3)c(=O)c2cc1OC	7.0	19	-15	13	6	5	9485
COCCOc1ccc(C(F)(F)F)cc1NC(=O)COC(=O)Cc1c[nH]c2ccccc12	2.0	/	-4	7	-6	-9	3016
O=C(c1ccc(Cl)c(Cl)c1)N1CCN(Cc2ccc3c(c2)OCO3)CC1	-0.1	2	-21	18	13	14	3648
O=C(Cc1ccc(F)cc1)NCC1CCCO1 (stereo not drawn)	6.3	-4	3	17	2	7	4176
Cc1ccc(C)c(CSC2=NCCN2S(=O)(=O)c2ccccc2)c1	-0.3	-5	-13	8	9	2	4935
O=C(NC12CC3CC(CC(C3)C1)C2)C1CC(=O)N(c2ccc(Br)cc2)C1 (stereo not drawn)	-11	13	-22	3	10	-11	2917
CC(C)(O)C#Cc1ccc(C(=O)NCCc2ccc(S(N)(=O)=O)cc2)cc1	5.0	-7	-8	1	2	-1	2562
Cc1[nH]c2ccccc2c1C1=CCNCC1	1.9	11	-20	2	3	-2	14247
COc1ccc(C=NNC(=O)c2cnccn2)cc1O	2.4	/	/	17	0	6	/
CCN(CC)CCN(Cc1cc2cc3c(cc2[nH]c1=O)OCCO3)C(=O)NC1CCCCC1	-6.0	5	-29	9	14	-16	4951
CC1CCc2c(sc(NC(=O)CCc3nc4ccccc4c(=O)[nH]3)c2C#N)C1 (stereo not drawn)	6.5	/	-16	2	-5	5	2845
O=C(CN1C(=O)NC(Cc2ccccc2)C1=O)Nc1ccc(F)cc1 (stereo not drawn)	2.1	5	-11	4	7	-1	9456
Cn1nnnc1Sc1ncnc2scc(-c3ccc(F)cc3)c12	4.9	3	-28	5	10	-3	4631
COc1ccc(Oc2nccc(-c3ccccc3)c2C#N)cc1	1.7	1	-65	8	6	19	3149
Cc1cc(C)cc(NC(=O)COC(=O)CCCC2=NS(=O)(=O)c3ccccc3N2)c1	1.8	4	-17	3	4	5	4933
CCCCN(C(=O)COC(=O)CSc1ccc([N+](=O)[O-])cc1)c1c(N)n(CCC)c(=O)[nH]c1=O	1.9	-4	-1	-3	5	6	5733
c1ccc(-c2cc3c(N4CCOCC4)ncnc3s2)cc1	4.9	-3	3	3	0	-23	2886
CC(=NNc1ccc(C(=O)O)cc1)c1ccc(O)c(O)c1O	1.4	/	/	1	0	19	/
O=C(Nc1ccnn1C1CCN(CCCc2ccccc2)CC1)c1cccc(F)c1	2.6	3	-3	4	2	2	6315
CC(=O)OCCc1[nH]c2ccccc2c1C	/	-16	-5	/	/	/	2890
O=C(Cn1cccc1)NCc1cccs1	-0.1	3	-5	3	12	-4	10709
O=C(Cn1cnc(S(=O)(=O)N2CCCC2)c1)Nc1ccc(OC(F)(F)F)cc1	8.5	-5	-14	-13	-8	3	2806
CCCn1c(SCC(=O)Nc2ccc(C(=O)Nc3ccccc3OC)cc2)n[nH]c1=O	2.7	-1	-46	5	13	2	2578
CCOc1ccc(NC(=O)N(CCCN2CCOCC2)Cc2cccnc2)cc1	3.3	8	-28	2	7	4	6021
CC1CCC(NC(=O)CCS(=O)(=O)c2ccc3c(c2)CC(C)N3C(=O)C2CC2)CC1 (stereo not drawn)	1.3	-3	-1	-4	-6	5	5614
N#C/C(=C\c1ccc(OCc2ccc(F)cc2)cc1)C(=O)Nc1cccc(C(=O)O)c1	/	4	-40	/	/	/	3618
Cc1nnc(SCCn2c(N3CCN(C)CC3)nc3c2c(=O)[nH]c(=O)n3C)s1	3.3	5	-40	1	10	1	10402
CCc1cccc(C)c1NC(=S)N(CCN(C)C)C(C)c1cccnc1 (stereo not drawn)	10.0	1	-1	5	14	4	4147
Cc1ccc(S(=O)(=O)N(C)C)cc1NC(=O)C1CCC1	4.1	-4	-9	7	-10	16	5880
Cc1ccc(NCC(O)C(O)C(O)CO)cc1C (stereo not drawn)	4.8	-21	-30	6	6	-6	20300*
COc1cccc(-c2ncc3ccccc3c2COC(=O)c2cccs2)c1	-0.6	/	-7	1	3	3	3939
O=C(CCCOC(=O)c1ccc(O)cc1O)c1ccccc1	10	/	-25	8	-15	-2	3785
CCN(CC)c1ccc(/C=N/NC(=O)c2nnn(-c3nonc3N)c2C(C)C)c(O)c1	/	88*	34	/	/	/	4946
COC(=O)C1=C(C(=O)OC)C2N(C)c3ccc(OC)cc3[C@@]23CC(C(=O)OC)N(C(=O)C2CCC2)C3=N1 (stereo partly drawn)	5.3	/	/	-2	-1	1	/
CC1(c2nnc(Cc3ccccc3)o2)CC(c2ccc(C#N)cc2)=NO1 (stereo not drawn)	/	-4	6	/	/	/	3235
Nc1nonc1-n1nnc(C(=O)NN=Cc2ccccc2)c1CN1CCc2ccccc21	2.1	/	/	-3	0	3	/
O=C(Nc1ccccc1Oc1cccnc1)C1CCCN(Cc2ccccc2O)C1 (stereo not drawn)	-1.5	1	-7	-6	0	-4	5697
Cc1ccc(S(=O)(=O)NC(C)CCc2ccccc2)cc1 (stereo not drawn)	4.5	-10	-6	0	12	-4	4364
O=C(CN(C(=O)c1csnn1)c1ccc2c(c1)OCCO2)NCc1ccccc1	-1.9	-5	2	4	1	-1	2817
Cc1ccc(/C=C/c2ccc3cccc(O)c3n2)s1	1.4	10	-23	-9	-3	3	2958
CC1(C)Cc2nc3oc4c(N5CCOCC5)ncnc4c3cc2CO1	1.4	1	9	4	-2	7	7999
Cc1oncc1-c1cn2ccccc2n1	1.4	1	-8	/	/	5	4790
CC1COC(=O)CCC=CCC(CC(=O)N(CCO)Cc2ccccc2)C(=O)N1 (stereo not drawn)	8.2	/	/	9	2	6	/
NC(=S)N=Nc1c(O)[nH]c2c(Br)cc(Br)cc12	0.3	2	-8	0	4	-9	3595
O=C(O)C1=C[C@@H](c2csc3ccccc23)C[C@@H](OCCCCO)O1	/	-2	-22	/	/	/	4031
O=c1oc2ccccc2c(O)c1Cc1cc(Cl)c2cccnc2c1O	94*	-3	-19	13	2	98*	4704
Cc1ccc(CSCC(=O)N(C)CC(=O)Nc2cccc(F)c2)cc1	-0.2	8	-24	9	1	6	?
CCOC(=O)c1c(N)sc(C(=O)N2CCCCCC2)c1C	-2.1	-4	-9	/	/	7	4255
CCC1(O)c2ccccc2-c2ncccc21 (stereo not drawn)	2.3	-6	-13	/	/	4	4686
Cc1cc([N+](=O)[O-])nn1CC(=O)Nc1nccs1	/	-18	-32	/	/	/	10494
CN1CCN(S(=O)(=O)c2ccc(N3CCN(c4ccccc4O)CC3)c([N+](=O)[O-])c2)CC1	-4.6	/	0	-8	-4	-11	?
COCCn1c(C)cc(C2=NNC(=Nc3ccc(Cl)cc3Cl)SC2)c1C	11	-10	-20	2	6	-10	11496
C=CCn1c2ccccc2c(=O)c2cc(C#CCC(C)O)ccc21 (stereo not drawn)	6.3	/	/	7	6	4	/
COc1ccc(N(C)C(=O)c2oc(=O)c3ccccc3c2-c2ccc(C)cc2)c(OC)c1	0.0	-5	-10	-5	-4	7	3366

Compounds as they come. Share with any hit: about 4%.
